# Screening data from PubChem.
# PMP22 txn prim: Cell-based coincidence reporter assay to measure PMP22 gene transcription in S16 Pmp22-F2sN cells - Primary screen. S16 Pmp22-F2sN Schwann cells (luciferase reporters placed in the Pmp22 gene), FLuc/NLuc coincidence luminescence, 24 h. Potency, µM (top dose mostly 57.5 µM), without a hit: top-dose activity change, negative = inhibition, actives largely listed as inhibitors. 43,000 compounds, 2% hits; active = clear falling dose curves in both reporters; inconclusive = both reporters move, but less clearly or upward; inactive = either reporter flat; the % is the NLuc reporter signal; also: % is scaled to controls: 0 for no effect and ±100 for the full control effect; some results filed as inactive show a strong effect at the top dose
#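 S16(c9) Schwann cells with FLuc/NLuc coincidence reporter in the Pmp22 3' UTR; compounds pin-transferred, 24 h at 37C. Dual-luciferase read: FLuc first, then NLuc after Stop&Glo, each 10 min at room temperature.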
# HTT prom inh: Primary qHTS for Identification of Small Molecule Inhibitors of Huntingtin Promoter Activity; HEK293 HTT promoter firefly luciferase reporter (activity 0% = vehicle and -100% = no light), 24 h; Potency, µM (top dose mostly 57.5 µM), for the others: at the highest dose activity change, negative = inhibition, actives largely listed as inhibitors; 48,000 compounds, 0.93% hits; AID 1508623, 2021; active = well fitted inhibition curve with a large enough effect; inconclusive = small, poorly fitted or top-dose-only effect; inactive = no such curve, though single readings can be large or run the other way; also: nearly all actives have a fitted effect of over 50% in size
#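 HEK293 luciferase promoter-reporter cells (2,500/well) plated 24 h, then compounds added at up to 57.5 uM final for 24 h at 37 °C. Firefly luminescence by Dual-Glo, normalized to vehicle (0%) and zero RLU (-100%).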
# Starred values were filed as active, the others as inactive; ? = inconclusive; / = no result given; & = joins results of further samples; [ ] = another dose, or the depositor's remark. Potency is read from the fitted curve at half-maximal effect.
SMILES,PMP22 txn prim,HTT prom inh
CC(=O)N1CCCc2cc(S(=O)(=O)N3CCCC(C(=O)NCc4ccccc4Cl)C3)ccc21 (centres undefined),?,?
CSc1cccc(NC(=O)Cn2nc(C)c3sc4ccccc4c3c2=O)c1,3%,-21%
CCOCCCNC(=O)N1CCN(S(=O)(=O)c2ccc3c(ccn3C)c2)CC1,-11%,-15%
CS(=O)(=O)CC[C@@H](C(=O)NCCc1ccccc1)N1Cc2ccccc2C1=O,3%,0%
CCOC(=O)CNC(=O)N1CCN(c2nnc(C)c3c(C)n(-c4ccc(Cl)cc4)nc23)CC1,-11%,-16%
CCn1c(CN2CCN(c3cccc(Cl)c3)CC2)nc2c1c(=O)[nH]c(=O)n2C,?,?
CCn1cc2nc(SCc3cccc(C)c3)n(CCc3ccccc3)c(=O)c2n1,?,-29%
CC(=O)c1ccc(N2CCN(c3ccc4cc(S(=O)(=O)N5CCCCC5)ccc4n3)CC2)cc1,?,0%
O=C(Nc1ccc2nc3n(c(=O)c2c1)CCCCC3)c1cccc(C(F)(F)F)c1,?,?
O=C(CSc1nc2nccnc2c(=O)n1CCc1c[nH]c2ccccc12)Nc1ccccc1,-48%,-20%
COc1ccc(C(=O)N2CCC(c3nc(-c4ccc(S(=O)(=O)N5CCCC5)cc4)no3)CC2)cc1,?,-18%
COc1ccc(N2CCN(C(=O)CN3CCSc4ccccc43)CC2)cc1,-13%,-32%
O=C(NCCS(=O)(=O)N1CCN(c2ccccc2F)CC1)c1cc(=O)c2ccccc2o1,7%,?
Cc1ccc2nc(NC(=O)CSc3cc(C)[nH]c(=O)n3)sc2c1,-20%,25%
CC(C)CC(=O)NCC(c1ccc2c(c1)OCO2)N1CCN(c2ccccc2)CC1 (centres undefined),?,-7%
CC(C)CC(=O)Nc1ccc(S(=O)(=O)Nc2cc3c(cc2N2CCOCC2)n(C)c(=O)c(=O)n3C)cc1,?,-11%
COc1cc(NC(=O)CN2C(=O)C(c3ccc(C)cc3)=NC23CCCCC3)cc(OC)c1,?,?
Fc1ccc(-c2noc3ncnc(NCCCN4CCN(c5ccccc5)CC4)c23)cc1,?,-16%
Cc1ccc2c(c1)N(S(=O)(=O)c1cc(-c3onc(C)c3C)ccc1C)CCO2,?,?
Cc1cccc(NC(=O)c2cc(CN3CCOCC3)on2)c1C,4%,3%
N[C@@H](CC(=O)N1CCn2c(nnc2C(F)(F)F)C1)Cc1cc(F)c(F)cc1F,/,4%
Cc1noc(C)c1S(=O)(=O)N(CC(=O)NCc1ccccc1Cl)c1ccc(C(C)C)cc1,?,?
CCC(=O)Nc1sc2c(c1C(=O)Nc1cccc(C)c1)CCCC2,-2%,-29%
CC(=O)c1ccc(N2CCN(c3nc4c(S(=O)(=O)c5ccccc5)nnn4c4ccc(Cl)cc34)CC2)cc1,-9%,-5%

# Another view of some results above:
CCC(=O)Nc1sc2c(c1C(=O)Nc1cccc(C)c1)CCCC2
- PMP22 txn prim: -2%
- HTT prom inh: -29%

Cc1ccc2c(c1)N(S(=O)(=O)c1cc(-c3onc(C)c3C)ccc1C)CCO2
- PMP22 txn prim: ?
- HTT prom inh: ?

CC(=O)c1ccc(N2CCN(c3nc4c(S(=O)(=O)c5ccccc5)nnn4c4ccc(Cl)cc34)CC2)cc1
- PMP22 txn prim: -9%
- HTT prom inh: -5%

COc1cc(NC(=O)CN2C(=O)C(c3ccc(C)cc3)=NC23CCCCC3)cc(OC)c1
- PMP22 txn prim: ?
- HTT prom inh: ?

# Other records follow:
SMILES,PMP22 txn prim,HTT prom inh
Cc1ccc(CCNC(=O)CN(c2ccc(C)cc2)S(=O)(=O)N(C)C)cc1,-6%,-13%
CCCCOC(=O)c1c(C)oc2ccc(NS(=O)(=O)c3ccc(F)cc3C)cc12,0%,-19%
Cc1ccc(NC(=O)Cn2cnc3sc(C)c(S(=O)(=O)N4CCN(c5ncccn5)CC4)c3c2=O)cc1F,-2%,-10%
CCOC(=O)c1ccc(Nc2nc(C)cc(C)n2)cc1,-15%,5%
C#CC(C)(C)NS(=O)(=O)c1cc(-c2nnc(Nc3ccc(C)cc3)c3ccccc23)ccc1C,?,?
COCCn1c(C)cc(O)c(C(c2ccc(F)cc2)N2CCC(C)CC2)c1=O (centres undefined),3%,-8%
Cc1ccc(N2CCN(C(=O)c3nn(C)c4c3CS(=O)(=O)c3ccccc3-4)CC2)c(C)c1,?,?
Cn1c(CN2CCCCC2)nc2cc(NC(=O)c3ccc(Cl)cc3)ccc21,-47%,?
COc1ccc(Cl)cc1NC(=O)N1CCC(CN2CCc3ccccc3C2)CC1,-24%,-27%
COc1ccc(Cn2c(C(=O)O)c(CNCc3ccco3)c3ccc(C)cc32)cc1,-13%,-17%
CCCCOc1cccc(C(=O)N(Cc2sccc2C)C2CCS(=O)(=O)C2)c1 (centres undefined),-6%,?
Cc1ccccc1CSc1nc2cccnc2n1Cc1ccc(C(=O)NCCc2cccs2)cc1,?,-12%
COc1ccc(N2CCN(C(=O)CCn3c(=O)[nH]c4cc(OC)c(OC)cc4c3=O)CC2)cc1,-10%,2%
CCN1c2ccccc2-c2nc(SCC(=O)NCc3ccc(Cl)cc3)ncc2S1(=O)=O,?,?
CN(C)CCNC(=O)Cn1ccc2cc(S(=O)(=O)N3CCCCCC3)ccc21,-12%,3%
Cc1cccc(NC(=O)CSc2cn(CC(=O)N3CCC(C)CC3)c3ccccc23)c1C,-28%,-5%
Cc1cccc(COc2ccc(-c3cc(C(F)(F)F)n4nc(C)cc4n3)cc2)c1,-6%,3%
CCC(=O)N1CCc2cc(S(=O)(=O)NC(C(=O)Nc3cc(OC)cc(OC)c3)C(C)C)ccc21 (centres undefined),7%,-4%
O=C(Nc1ccc2nn(-c3ccc(F)cc3)nc2c1)c1cccc2c(Cl)cccc12,?,-17%
Cc1nn(C(C)C(=O)N2CCN(c3ccc(Cl)cc3)CC2)c(=O)c2cc3occc3n12 (centres undefined),?,25µM*
Cc1cccc(-c2noc(-c3cc(C(C)C)[nH]n3)n2)c1,-19%,26%
COc1ccc(CNC(=O)C2CCCN(C(=O)N3CCOc4ccccc43)C2)cc1 (centres undefined),-11%,?
CCOC(=O)c1c(C)c(-c2ccccc2)n(CC(=O)Nc2cc(C)ccc2OC)c1C,9.5µM*,-7%
CCn1cnc2cc(NCc3ccc(N(C)C)cc3)ccc21,?,3%
Cc1ccc(C)c(NC(=O)CSc2nc3nccnc3c(=O)n2CCc2c[nH]c3ccccc23)c1,-27%,-6%
CCSc1ncc(Cl)c(C(=O)Nc2ccc(S(=O)(=O)N3CCC(C)CC3)cc2)n1,?,?
CCOc1ccccc1CNS(=O)(=O)c1ccc(-c2cnc(C3CC3)o2)cc1,?,?
CCC(Oc1ccccc1)C(=O)Nc1nnc(S(=O)(=O)N2CCCC2)s1 (centres undefined),10%,-15%
CC(COc1ccccc1)N(CCCl)Cc1ccccc1 (centres undefined),/,-4%&0%
CCOc1ccccc1NC(=O)c1sc(-n2nc(C)c(CCC(C)C)c2C)nc1C,?,-16%
Cc1cc2nnc(SCC(=O)Nc3ccc(F)c(Cl)c3)n2c2ccccc12,-11%,9%
CCCCNC(=O)c1nn(-c2ccc(C)cc2)c(=O)c2c1c1ccccc1n2C,-20%,-27%
COc1cccc(CNC(=O)C2CCN(Cc3cc4ccccc4n3Cc3ccccc3)CC2)c1OC,-31%,-20%
CCOc1ccc(NC(=O)N2CCC(c3ccc(C)cc3)C2)cc1 (centres undefined),-1%,21%
CCCCOc1ccc(CNC(=O)c2cnc3sc(N4CCOCC4)nn3c2=O)cc1,?,-3%
Cc1nn2c(=O)cc(COC(=O)c3ccccc3NC(=O)c3ccccc3C)nc2s1,-4%,38%[activator]
CC(CNC(=O)c1nnc(Cc2ccc(F)cc2)o1)c1ccccc1 (centres undefined),7%,-22%
Cc1ccc(CNC(=O)c2cn(C)c3ccc(S(=O)(=O)N4CCC(C)CC4)cc3c2=O)cc1,?,-2%
CC(CNC1CCCCC1)OC(=O)c1ccccc1 (centres undefined),/,-6%
Cc1ccc2c(c1)cc1c(=O)n(Cc3ccccc3Cl)nc(C)n12,13%,-8%
CC(C)c1ccc(NC(=O)Cn2nnc(C(=O)NCCc3ccccc3)c2N)cc1,-6%,-14%
CCOc1ccccc1C(=O)NC1(C(F)(F)F)C(=O)Nc2c1c(=O)[nH]c(=O)n2-c1ccc(F)cc1 (centres undefined),?,-11%
CCOc1ccccc1CNC(=O)CN1C(=O)CSc2ccc(S(=O)(=O)N3CCOCC3)cc21,-1%,-10%
Cc1cc(C)cc(-n2c(C)cc(C(=O)C(=O)Nc3ccccc3F)c2C)c1,?,30%
Cn1c(=NC(=O)c2ccc(F)cc2)sc2cc(Br)ccc21,-29%,62%[activator]
Cc1ccc(-c2nc(NC(=O)CSc3cc(C)c4ccccc4n3)ns2)cc1,1%,1%
Cc1ccccc1CN1c2ccccc2-c2nc(SCC(N)=O)ncc2S1(=O)=O,-7%,-15%
COc1ccc(-c2nc(SCC(=O)Nc3ccc4c(c3)OCO4)c(-c3ccc(OC)cc3)[nH]2)cc1,-8%,?
Cc1ncc(CO)c2c1Oc1nc(-c3ccc(F)cc3)nc(SCc3ccc(F)cc3Cl)c1C2,?,-19%
O=C(CN1C(=O)C2(SCC(=O)N2c2ccc(F)c(F)c2)c2ccccc21)Nc1cccc(Cl)c1 (centres undefined),?,?
CCOc1ccc(S(=O)(=O)Nc2ccc3c(c2)c(C(C)=O)c(C)n3S(=O)(=O)c2ccc(OCC)cc2)cc1,?,?
O=C(Nc1cccc(Cl)c1)c1ccc2nc(Cc3ccccc3)oc2c1,-4%,?
COc1cc(C(=O)Nc2ccccc2-c2nc(-c3ccc(C)cc3)no2)cc(OC)c1OC,-1%,2%
COc1ccc(CNC(=O)c2cc(Nc3ccc(C)cc3C)nc3ccccc23)cc1,-15%,8%
Cc1cccc(Nc2nc3c(S(=O)(=O)c4ccc(Br)cc4)nnn3c3ccsc23)c1C,12µM*,-9%
Cc1ccc(-n2c(=O)c3oc4ccccc4c3n(Cc3ccccc3)c2=O)cc1C,?,?
Cc1nc(SCC(=O)Nc2ccc(Cl)cc2C(F)(F)F)[nH]c(=O)c1Cc1ccccc1,-17%,-9%
CCS(=O)(=O)N1CCCc2cc(C(=O)Nc3cccc(C(C)=O)c3)ccc21,9%,-20%
CCc1ccc(NC(=O)c2ccc(F)c(S(=O)(=O)N3CCN(c4cc(C)ccc4C)CC3)c2)cc1,-18%,?
COc1ccc(CNC(=O)CCCc2cn(C)c3ccccc23)c(OC)c1,1%,?

# No new results follow: 6 of the compounds above.
SMILES,PMP22 txn prim,HTT prom inh
CCOc1ccc(S(=O)(=O)Nc2ccc3c(c2)c(C(C)=O)c(C)n3S(=O)(=O)c2ccc(OCC)cc2)cc1,?,?
O=C(Nc1cccc(Cl)c1)c1ccc2nc(Cc3ccccc3)oc2c1,-4%,?
COc1cc(C(=O)Nc2ccccc2-c2nc(-c3ccc(C)cc3)no2)cc(OC)c1OC,-1%,2%
COc1ccc(CNC(=O)c2cc(Nc3ccc(C)cc3C)nc3ccccc23)cc1,-15%,8%
Cc1cccc(Nc2nc3c(S(=O)(=O)c4ccc(Br)cc4)nnn3c3ccsc23)c1C,12µM*,-9%
Cc1ccc(-n2c(=O)c3oc4ccccc4c3n(Cc3ccccc3)c2=O)cc1C,?,?

# (cont.)
SMILES,PMP22 txn prim,HTT prom inh
CCOC(=O)c1cccc(NC(=O)NCc2ccc3c(c2)CCN3C(=O)CC)c1,2%,-23%
COc1ccccc1CNC(=O)CCNS(=O)(=O)c1cccc2nsnc12,-5%,-3%
CCCCOc1ccc(Cn2c(=O)sc3ccccc32)cc1,2%,?
COc1ccc(OC)c(CNC(=O)CCS(=O)(=O)c2ccc3c(c2)oc(=O)n3C)c1,-17%,5%
c1ccc2c(-c3cnn4cc(-c5ccc(N6CCNCC6)cc5)cnc34)ccnc2c1,/,-6%
CCOc1ccc(OCC)c(Nc2ccc3cc(S(=O)(=O)N4CCCC4)ccc3n2)c1,?,-6%
Cc1cccc(OCCn2c(SCC(N)=O)nc3ccccc32)c1,?,-12%
COc1ccc(CNC(=O)CCC2N=C3c4ccccc4N=C(SCc4ccc(F)cc4)N3C2=O)cc1 (centres undefined),2%,-21%
Cc1cccc(NC(=O)CSc2nc(-c3cccs3)cc(C(F)(F)F)c2C#N)c1,15µM*,-26%
CCOc1ccc(CNC(=O)CSc2nnc(C)c3c(C)n(-c4ccc(Cl)cc4)nc23)cc1,-22%,-5%
COc1ccc(C)cc1NC(=O)C(=O)NCCc1csc(-c2ccc(C)cc2)n1,?,6%
COCCCNC(=O)c1ccc(-n2c(-c3ccccc3)cc3c2CCCC3)cc1,?,16%
